# Screening results from PubChem.
# gsp ag = gsp mutant agonism; gsp mutant cells, cAMP HTRF, 30 min; control for the full effect not named in the record; Potency, µM (series often up to 76.9 µM), for the others: at the top dose activation (cAMP increase), usual class: activators; hit rate 0.13% among 340,000; AID 624287; active = well fitted activation curve with a large enough effect; inconclusive = small, poorly fitted or top-dose-only effect, or another doubt; inactive = no such curve, though single readings can be large or run the other way; cell line not stated here;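 note: phosphodiesterase inhibitor Ro 20-1724 added with compounds to block cAMP breakdown; potency is the fitted concentration of half-maximal effect; nearly all actives have a fitted effect of over 60% in size; about a fifth of the inactives were tested at one dose only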
#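 Cells in DMEM/10% FBS with G418 were pretreated with compounds in DMSO plus […] (300 uM stock) for 30 min at 37C. cAMP was measured by HTRF (cAMP-d2 plus anti-cAMP antibody-K) after 30 min at room temperature.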
# D2 agonist = agonists of human D2 dopamine receptor (beta-arrestin); P14416; DiscoveRx PathHunter D2 beta-arrestin, luminescence, 90 min; 100% = 57 uM dopamine signal; activation, % (no concentration beside the values); hit rate 0.084% among 360,000; AID 624465; in the data active = activation above about 40%; inconclusive = about 15% to 40%; inactive = below about 15%; note: compound concentration not given in the record; the text of the record calls up to 30% inactive
# Target sequence (P14416 whole entry, looked up): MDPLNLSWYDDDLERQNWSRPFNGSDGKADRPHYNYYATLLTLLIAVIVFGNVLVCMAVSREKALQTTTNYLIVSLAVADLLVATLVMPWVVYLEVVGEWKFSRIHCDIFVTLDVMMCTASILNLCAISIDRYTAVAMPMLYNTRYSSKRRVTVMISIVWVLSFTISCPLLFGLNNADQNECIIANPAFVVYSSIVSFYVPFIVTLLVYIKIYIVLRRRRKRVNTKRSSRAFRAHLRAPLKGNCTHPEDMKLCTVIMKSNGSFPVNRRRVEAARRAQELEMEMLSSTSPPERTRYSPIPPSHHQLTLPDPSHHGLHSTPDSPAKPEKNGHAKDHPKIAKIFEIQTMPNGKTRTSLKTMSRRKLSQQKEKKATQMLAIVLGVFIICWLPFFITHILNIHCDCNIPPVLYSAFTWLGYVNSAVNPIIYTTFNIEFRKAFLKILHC
#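 DiscoveRx PathHunter D2 beta-arrestin cells (2,100/well) attached overnight, then compound-stimulated 90 min at 37 C in HBSS/10 mM HEPES/0.1% Tween-20 buffer; beta-galactosidase complementation read by luminescence after 1 h at ambient temperature. Dopamine 57 uM final (EC100) as control.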
# gsp antag = antagonizes gsp, the McCune-Albright syndrome mutation | gsp-mutant cells, cAMP HTRF, 30 min; control for the full effect not named in the record | Potency, µM (titrated, usually from 76.9 µM), for the others: top-dose activity change, negative = inhibition, most hits filed as inhibitors | hit rate 0.4% among 340,000; active = falling curve of any shape with a large fitted effect; inconclusive = falling curve, mostly with a smaller effect; inactive = flat or rising curve; cell line not stated here;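 note: intracellular cAMP measured with PDE inhibitor Ro 20-1724 present during compound exposure; potency is the fitted concentration of half-maximal effect; % is set by controls: 0 for no effect and ±100 for the full control effect; nearly all actives have a fitted effect of over 65% in size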
#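 Cells, 2000/well, grown 16–24 h in DMEM 10% FBS with 0.5 mg/ml G418, then compounds plus […] (300 uM addition stock), 30 min at 37C. cAMP read by HTRF (cAMP-d2 and anti-cAMP antibody-K in lysis buffer) after 30 min RT.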
# Menin-MLL FL inh = inhibitors of human menin-MLL interaction, wild-type MLL peptide; Fluorescence polarization, fluorescein-MLL peptide displacement from menin; FP activity change, % at 61.4 µM; 290,000 tested, under 10 active; AID 1766; inconclusive = falling polarisation curve, or a change in total fluorescence; inactive = total fluorescence flat and polarisation flat or rising; no compound was filed as active; the % refers to the polarisation; negative = inhibition;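 note: % of control where 0% means no effect; inhibitors lower the polarisation; unlabelled MLL peptide was the positive control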
# Sfp inh = Sfp phosphopantetheinyl transferase inhibition; AID 1490; Biochemical Sfp PPTase activity, qHTS; hit rate 3.5% among 310,000; Potency, µM, for inactives: max response, negative = inhibition, usual class: inhibitors; Q9F4F7; active = well fitted inhibition curve with a large enough effect; inconclusive = small, poorly fitted or top-dose-only effect, or another doubt; inactive = no such curve, though single readings can be large or run the other way;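 note: the enzyme is Sfp with the accession as filed and its product quenches rhodamine fluorescence; potency is the fitted concentration of half-maximal effect; 0% = enzyme reaction without inhibitor and -100% = no enzyme wells; top concentration of the series not given in the record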
#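 Compounds were incubated with enzyme (final 15 nM) for 15 min at room temperature before substrate addition started the reaction. Fluorescence at 525 nm excitation, 598 nm emission was recorded immediately and after 30 minutes.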
# ClpP mod = qHTS Assay for Activators of ClpP; purified B. subtilis ClpP, FRET peptide cleavage, 20 min; Potency, µM (top dose mostly 57.5 µM), for the others: at the highest dose activity change, negative = active; hit rate 1.9% among 340,000; AID 651965, 2013; active = well fitted falling curve with a large enough effect; inconclusive = small, poorly fitted or top-dose-only effect; inactive = no such curve, though single readings can be large or run the other way; note: potency is the fitted concentration of half-maximal effect; the source files actives as falling curves though it sought activators and does not explain the sign; nearly all actives have a fitted effect of over 65% in size; many hits overshoot -100%
# Target sequence (P80244 whole entry, looked up): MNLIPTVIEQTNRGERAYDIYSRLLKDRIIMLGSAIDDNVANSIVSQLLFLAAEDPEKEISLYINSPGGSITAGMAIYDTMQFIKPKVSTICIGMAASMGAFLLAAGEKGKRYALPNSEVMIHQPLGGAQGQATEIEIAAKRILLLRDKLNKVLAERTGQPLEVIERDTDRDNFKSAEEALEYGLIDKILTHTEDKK
#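 FRET quenching reversal measured ClpP activation: 10 microg/mL B. subtilis ClpP at pH 8 with the FRET-FV decapeptide, read at 430 nm after 320 nm excitation. The 20-min minus 0-min signal was scaled between DMSO/no-enzyme wells and ADEP (5.8 microM final).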
# PINK1 expr mod = modulators of PINK1 expression | AID 624263 | Potency, µM (highest dose often 76.6 µM), inactives show at the top dose activation (PINK1 increase), most hits filed as activators | PINK1 immunofluorescence, high-content cytometry, 24 h | hit rate 0.2% among 410,000; active = well fitted activation curve with a large enough effect; inconclusive = small, poorly fitted or top-dose-only effect; inactive = flat fitted curve, though single readings scatter; cell line not stated here;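 note: potency is the fitted concentration of half-maximal effect; % of control where 0% means no effect; nearly all actives have a fitted effect of over 65% in size; a mitochondrial uncoupler was the plate control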
#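 Stable cell line treated 24 h with compounds at 5 concentrations (CCCP controls), then fixed and immunostained for PINK1 plus nuclear and cell stains; PINK1 immunofluorescence quantified by laser-scanning microplate cytometry.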
# An asterisk follows results filed as active; u = inconclusive; x = not tested or not shown; [ ] = remark or other dose. An unsorted share of the library. About 5.1% of those tested had a hit in this group.
SMILES,gsp ag,D2 agonist,gsp antag,Menin-MLL FL inh,Sfp inh,ClpP mod,PINK1 expr mod
Cc1cccc(C)c1NC(=O)CN1CCc2ccccc2C1,-46%[inhibitor],0.8,9%,x,x,-0.4%,-1.0%
COc1ccc(-c2cc(C(F)(F)F)n3nc(C(=O)O)cc3n2)cc1OC,-1%,-3.0,3%,0.9,0%,-0.9%,-0.8%
O=C(CSCc1ccccc1Br)N/N=C/c1ccc2c(c1)OCO2,-7%,-0.9,-36%,0.8,-8%,-2.5%,1.4%
CCN(Cc1ccccc1)C(=O)CN1C(=S)NC(C)(C)CC1C (stereo unspecified),4%[15.4 µM],-0.4,-5%,-0.5,8%,-1.4%,2.3%
CC(C)C(=O)NC(=S)Nc1ccccn1,-23%,0.0,0%,-2.9,-3%,3.9%,0.3%
COc1cc(C(=O)NCCCNc2nc3cc(C)cc(C)c3cc2C#N)cc(OC)c1OC,1%,-0.9,-1%,-1.1,3%,25µM*,-0.5%
COc1cc(/C=N/NC(=O)c2ccc([N+](=O)[O-])cc2Cl)cc(Br)c1O,0%,5.1,-2%,0.2,1%,1.5%,0.8%
O=C(CSc1nc(-c2ccco2)cc(C(F)(F)F)n1)N1CCN(Cc2ccccc2)CC1,-1%,-6.6,u,8.9,-21%,-2.3%,5.9%
CCCCCCN1C[C@H](O)[C@@H](n2cc(C3CC3)nn2)C[C@@H]1c1ccc(OC)cc1,-27%,2.5,x,x,x,-0.8%,22%
COc1cc(/C=C(/C#N)C(=O)Nc2cc(C(F)(F)F)ccc2Cl)ccc1OCC(=O)Nc1cccc(C(F)(F)F)c1,u,-2.9,4%,x,x,x,11%
Cc1ccc(-c2cc(C(=O)N3CCN(c4ccccc4O)CC3)c3ccccc3n2)cc1,12%[15.4 µM],4.1,-16%,x,x,-4.8%,0.3%
Cc1cc(C)c(NC(=S)NC(=O)c2ccc(-c3ccccc3)cc2)c(C)c1,-20%,2.9,-12%,-1.0,13%,2.2%,1.5%
Nc1scn[n+]1Cc1cccc2cccnc12,-31%[inhibitor],-1.8,9%,2.7,-9%,2.0%,10%
Cn1c(Cn2c(=O)sc3ccccc32)nnc1SCC(=O)NC1CCCC1,u,-1.0,11%,3.7,31%[activator],-3.0%,-0.1%
Cc1ccccc1N(C=O)c1ccccc1C,-22%,-0.8,12%,x,x,x,-0.5%
COC(=O)C1=C(C)n2nnnc2NC1c1ccc(Cl)cc1 (stereo unspecified),-15%,-1.7,-4%[15.4 µM],1.0,9%,-3.1%,-0.4%
COCCNC(=O)CN(C(=O)CCC(=O)Nc1ccccn1)c1ccc(OC)cc1,-2%,0.2,5%,5.6,12%,x,1.5%
CCOc1cc(C(=O)N2CCN=C2SC)cc(OCC)c1OCC,0%,-1.3,7%,5.6,19%,2.4%,-0.6%
Cn1cccc1-c1nc2ccccc2[nH]1,-9%[15.4 µM],-2.3,-11%,0.1,15%,0.9%,-0.3%
COc1ccc(-c2c/c(=N\c3nc(-c4ccccc4)c(C)s3)c3ccccc3o2)cc1O,-48%[inhibitor],-4.5,10%,0.7,12%,0.8%,16%
CCn1cc(CNC(=S)Nc2cccc(Cl)c2C)cn1,-7%[15.4 µM],0.8,x,-4.1,10%,x,1.5%
O=C(CSc1nc2ccccc2nc1N1CCCCC1)Nc1ccc(F)cc1,-45%[inhibitor],-5.2,-14%,3.5,4%,-11%,0.2%
Cn1c(=O)[nH]c(=O)c2c1[nH]c(=S)n2Cc1ccccc1,u,u,2%,-10,45µM*,-0.1%,-0.3%
COc1cc(/C=N/Nc2nc(N3CCCC3)nc(N3CCCC3)n2)ccc1OCc1ccccc1F,1%,5.6,u,1.5,-1%,x,6.2%
COC(=O)c1cncc(C)c1,1%,-4.4,3%,-7.1,17%,1.8%,2.1%
CC[C@]1(C(=O)OC)[C@H]2C(=O)N(C)C(=O)[C@H]2[C@H]2CN=C(SCC3CC3)N21,x,-1.6,5%,x,x,-1.8%,-0.3%
COc1ccc(OC)c(NC(=O)CSc2nn3c(=O)c(C)nnc3s2)c1,6%,6.9,-5%,x,4%,0.8%,0.9%
COc1ccc(NC(=O)C2=NN(C3CCS(=O)(=O)C3)C(=O)CC2)cn1 (stereo unspecified),13%,-1.1,-4%,-18,17%,0.9%,0.6%
O=C1CCCN1CCCNCCCn1cnc2c(OCc3ccccc3)ncnc21,x,-1.2,10%,x,x,0.9%,1.1%
N#CCCn1cc(C(=O)Nc2ccccc2Br)c(-c2cc3ccccc3o2)n1,-3%,-1.6,-39%,-1.3,-5%,u,4.6%
Clc1ccc(-c2nc3ccc(Br)cn3c2Cc2ccsc2)cc1,x,1.3,x,x,x,-3.3%,2.9%
COc1ccc(C2=Nn3c(nnc3-c3cccnc3)SC2)cc1OC,-3%,-3.1,18%,2.8,0%,0.4%,u
CN(C)CC#CCC(O)(c1ccccc1)c1ccccc1,0%[15.4 µM],-5.1,9%,1.9,1%,-2.2%,-3.2%
CC(C)CNC(=O)C1CCN(c2ccc(S(=O)(=O)N3CCOCC3)cc2Cl)CC1,-40%[inhibitor],2.6,-4%,0.9,11%,-0.9%,15%[38.3 µM]
Cc1ccc2nc(C3CCN(S(=O)(=O)c4ccc5ccccc5c4)CC3)[nH]c2c1,-6%,3.6,-10%,8.9,11%,-4.8%,-5.1%[38.3 µM]
CSc1ccccc1C(=O)NCc1ccc(C)cc1,-17%[15.4 µM],0.9,-17%,-2.5,-10%,x,3.8%
CC(=O)NC(c1ccc(F)c(F)c1)c1nc(-c2cccc(C(C)C)c2)cs1 (stereo unspecified),x,-3.0,x,x,x,-3.3%,u
COc1ccccc1CN1CCCCC1C(=O)O (stereo unspecified),6%[15.4 µM],-4.3,11%,-5.8,16%,x,3.6%
Nc1nc(SCc2nc(-c3ccccc3)no2)[nH]c(=O)c1-c1ccccc1,11%,-1.7,-11%,-2.3,-10%,-4.2%,-9.4%[38.3 µM]
CCOC(=O)N1CCN(C(=O)CSc2ccc(-c3ccncc3)nn2)CC1,23%[15.4 µM],-5.3,4%,-4.1,22%,x,-1.2%
Cc1c([N+](=O)[O-])c(N)nn1C,8%[15.4 µM],-2.4,15%,0.1,15%,x,-1.5%
Cc1ccc(NCc2nnc(SCC(=O)Nc3ncc(C)s3)n2Cc2ccco2)c(C)c1,-13%,-0.4,2%,2.1,-5%,-6.1%,9.8%
Cc1ccc(C)c(S(=O)(=O)n2cnc3ccccc32)c1,3%,3.6,11%,4.5,-21%,-1.6%,13%[38.3 µM]
CCOC(=O)c1cnc(-c2ccccc2)nc1Oc1ccc(Cl)cc1,-14%,-3.0,-2%,1.6,2%,1.3%,5.6%
O=C(Cn1cnc2cc([N+](=O)[O-])ccc2c1=O)Nc1cccc2ccccc12,0%[15.4 µM],u,u,-2.9,1%,x,6.8%
Cc1ccc(NC2=NC(C(=O)Nc3ccc(C)c(C)c3)CC(=O)N2)cc1 (stereo unspecified),-1%,-1.2,3%,4.1,14%,-1.3%,-0.4%
CC1(C)CC(=O)C(C=NCCN2CCN(C(=S)NC3CCCCC3)CC2)=C(O)C1,9%,3.1,1%,3.8,79µM*,-1.8%,1.4%
CC(C)C(=O)NCC(c1ccc2c(c1)OCO2)N1CCOCC1 (stereo unspecified),-18%,-0.2,-1%,4.1,1%,0.4%,3.2%
Nc1nc(N2CCN(C/C=C/c3ccccc3)CC2)nc2ccccc12,-34%,-11,6%,1.5,-2%,-12%,4.3%
CCCC(=O)N1CCCC(c2cc(C(=O)NCc3cccnc3)no2)C1 (stereo unspecified),x,-3.4,x,x,x,0.1%,3.1%
O=C(NCCF)C1Nc2ccc(OC(F)(F)F)cc2C2C=CCC12 (stereo unspecified),-10%,0.2,-2%,x,x,-3.3%,4.8%
CCc1ccc(C2CC(c3ccc(F)cc3)Nc3nc(N)nn32)cc1 (stereo unspecified),-17%,-1.2,6%,2.3,15%,1.1%,1.2%
CC(C)(C)OC(=O)N1CCC(c2cc(=O)n3[nH]cc(C(=O)NC4CCCC4)c3n2)CC1,5%,-5.9,-6%,2.3,1%,3.6%,0.5%
Cn1c(CC(=O)Nc2ccccc2Cl)nnc1SCC(=O)NC1=NCCS1,-9%[15.4 µM],0.7,6%,2.3,1%,x,1.5%
CSc1nc(N)nc2c1ncn2CC(=O)N1CCN(c2ccccn2)CC1,x,0.2,-7%,x,x,4.2%,-0.7%
COc1cc(OC)cc(-c2nc3ccccc3s2)c1,-13%,-2.1,-12%,0.9,-25%,u,3.0%[38.3 µM]
O=C(NCc1ccc(F)cc1)C1CCN(c2cnccn2)CC1,17%[15.4 µM],-1.6,10%,1.2,-1%,x,-0.1%
COC(=O)c1ccc2nc(-c3ccc(C#N)cc3)c(Cc3cccc(F)c3)n2c1,x,-7.1,x,x,x,4.4%,3.6%
CCOC(=O)C1CCN(S(=O)(=O)c2cc(Br)cc3c2N(C(=O)C2CC2)CC3)CC1,-10%,-2.5,-12%,-0.4,-16%,-2.1%,-1.8%
O=C(CCCc1ccccc1)NCc1cn2ccsc2n1,-78%,-3.6,4%,0.2,15%,0.9%,2.1%
# (next part)
SMILES,gsp ag,D2 agonist,gsp antag,Menin-MLL FL inh,Sfp inh,ClpP mod,PINK1 expr mod
O=C1CCCC2=C1C(c1cccs1)Nc1ccc3ncccc3c12 (stereo unspecified),6%,-3.6,1%,1.5,-15%,-25%,24%[38.3 µM]
Cc1cccc(-n2nc3c(c2NC(=O)c2ccc4c(c2)OCO4)CS(=O)(=O)C3)c1C,26%,-3.4,-2%,-1.2,-1%,-2.9%,-2.5%
CCn1c(SC(C)C(=O)N2CCOCC2)nc2sc(C)c(C)c2c1=O (stereo unspecified),11%,-2.1,3%,x,x,-2.9%,0.4%
CCn1cnc2cc(NCc3ccccc3Cl)ccc21,20%[15.4 µM],-5.4,0%,5.4,-1%,-1.9%,2.3%
CC(=O)Nc1cccc(NC(=O)Nc2ccc(C)c(Cl)c2)c1,4%[15.4 µM],1.9,-7%,-6.2,7%,1.8µM*,3.8%
Cc1ccccc1-c1nc(S(=O)(=O)c2ccc(Cl)cc2)c(NCCN2CCOCC2)o1,-1%,-1.0,-7%,1.4,-11%,-19%,u
